# Screens from PubChem.
# Resorufin autofl: compound fluoresces in the resorufin spectral region; Compound fluorescence, resorufin region 547/598 nm, buffer; stronger effect = higher value; max dye-equivalent concentration, M; hit rate 0.04% among 59,000; AID 588; active = above 10 nM dye equivalent; inconclusive = 1 to 10 nM; inactive = 1 nM or less; a few of its hits are not listed in these tables; also: highest value over a series up to 38 µM
#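 Read-out: intrinsic compound fluorescence at ex 547/em 598 nm after 15 min at RT in pH 8.0 Tris (100 mM). Values expressed as resorufin-equivalent concentration from per-plate standard series.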
# A647 fluor: A647 region autofluorescence | Compound fluorescence, A647 channel (570/671 nm), Tris buffer | max dye-equivalent concentration, M | 59,000 tested, under 10 active | AID 592; active means above 1 µM dye equivalent; inconclusive means 0.1 to 1 µM; inactive means 0.1 µM or less;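 also: values scaled relative to a standard on each plate; highest value over a series up to 38 µM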
#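 Compounds pinned into 100 mM Tris pH 8.0, 15 min at room temperature, then read with 570 nm excitation/671 nm emission filters. Fluorescence normalized to an on-plate six-point Alexa 647 standard curve, giving dye-equivalent concentration per compound concentration.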
# TSHR agonist: activates the human thyroid stimulating hormone receptor. P16473. Potency, µM (series often up to 57.1 µM), for the others: at the highest dose activation, most hits filed as activators. HEK293-CNG-TSHR cells (CNG channel as cAMP sensor), membrane potential dye, cAMP. hit rate 0.48% among 73,000; active = well fitted activation curve of enough size with the parental cells flat; inconclusive = any curve in the parental cells; inactive = parental cells flat and receptor cells flat or falling; also: potency is read from the fitted curve at half-maximal effect; % of control where 0% means no effect; weak receptor curves with flat parental cells got no call and are not listed
# Target sequence (P16473 whole entry, looked up): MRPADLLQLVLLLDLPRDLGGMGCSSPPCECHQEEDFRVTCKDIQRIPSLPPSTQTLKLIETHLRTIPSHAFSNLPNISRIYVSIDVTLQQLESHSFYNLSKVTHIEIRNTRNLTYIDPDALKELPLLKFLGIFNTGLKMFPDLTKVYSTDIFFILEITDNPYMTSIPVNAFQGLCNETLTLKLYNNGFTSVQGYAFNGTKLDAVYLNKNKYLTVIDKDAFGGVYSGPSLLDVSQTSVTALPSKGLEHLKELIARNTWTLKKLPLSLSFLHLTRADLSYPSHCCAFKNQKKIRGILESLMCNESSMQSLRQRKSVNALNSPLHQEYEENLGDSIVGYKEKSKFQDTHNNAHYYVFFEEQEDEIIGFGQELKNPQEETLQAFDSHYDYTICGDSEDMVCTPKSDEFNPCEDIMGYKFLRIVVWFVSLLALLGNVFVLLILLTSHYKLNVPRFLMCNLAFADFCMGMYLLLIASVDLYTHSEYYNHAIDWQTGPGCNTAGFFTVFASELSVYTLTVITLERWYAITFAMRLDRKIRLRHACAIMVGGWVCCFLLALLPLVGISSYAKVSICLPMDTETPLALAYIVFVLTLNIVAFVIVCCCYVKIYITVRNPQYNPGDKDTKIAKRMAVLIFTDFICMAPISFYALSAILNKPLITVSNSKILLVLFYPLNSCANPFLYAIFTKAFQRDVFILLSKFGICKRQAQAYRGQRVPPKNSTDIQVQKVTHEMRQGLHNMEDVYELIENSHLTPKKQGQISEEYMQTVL
#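 HEK 293 cells stably expressing TSHR and a cAMP-gated CNG channel; parental CNG-only cells as counterscreen. Cells preloaded 60 min with membrane potential dye plus 100 uM RO 20-1724, then compound 30 min; fluorescence read at 590 nm.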
# AID923: qHTS Assay for Allosteric/Competitive Inhibitors of Caspase-1: Spectroscopic Profiling in AFC Spectral Region; hit rate 1.1% among 75,000; AID 923, 2007; Potency, µM (top dose mostly 57.5 µM), for inactives: at the highest dose fluorescence increase, most hits filed as activators; compound fluorescence, AFC spectral region (405/520 nm); almost no hit is shown here; active = well fitted activation curve with a large enough effect; inconclusive = small, poorly fitted or top-dose-only effect;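 also: potency is read from the fitted curve at half-maximal effect; 0% is about no effect; scaled to a free AFC standard on each plate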
#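 Titrations up to 57 uM read every 20 sec for 3 min (405/520 nm) with 50 nM caspase 1 and 5 uM Ac-WEHD-AFC, pH 7.5 HEPES buffer. Fluorescence-vs-time intercept gave baseline, scaled against on-plate AFC standard.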
# A488 fluor: compound autofluorescence in A488 spectral region; compound autofluorescence, A488 spectral region, dye equivalency; stronger effect = higher value; max dye equivalency, M; hit rate 0.1% among 59,000; active = above 10 nM dye equivalent; inconclusive = 1 to 10 nM; inactive = 1 nM or less; about half of its hits are not listed in these tables;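 also: highest value over a series up to 38 µM; compound alone in buffer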
#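 Compounds pin-transferred into 100 mM Tris buffer, pH 8.0, incubated 15 min at room temperature, then imaged with 480 nm excitation/540 nm emission filters. Fluorescence converted to Alexa 488 dye-equivalent concentration via an on-plate six-point A488 standard curve.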
# * marks the source's active call; other numbers are inactive results; i = inactive; ? = inconclusive; / = not tested or not shown; [ ] = dose if it differs, or a comment. Not all compounds are listed. The share of hits here may be higher or lower than overall.
# Each structure is followed by: A647 fluor | A488 fluor | TSHR agonist | Resorufin autofl | AID923
OCCN(CCO)c1ncnc2c1sc1nc(N3CCOCC3)c3c(c12)CCCC3
 : 2.7e-08 | i | / | i | /
Fc1cc2ncn(Cc3ccccc3)c2cc1F
 : 8.9e-09 | i | 2% | i | -0.2%
CCCC(c1nnnn1C(C)(C)CC)N(Cc1ccco1)Cc1cc2ccc(OC)cc2[nH]c1=O (stereo not drawn)
 : 7.1e-09 | i | ? | i | 9.7%
Cc1cc(C(=O)NCc2cccs2)cs1
 : 7.8e-09 | i | 0% | i | -0.3%
CCc1c2c(nc3c(C(C)C)cccc13)-c1cccc(=O)n1C2
 : / | / | ? | / | 2.8%
COc1ccc(C(=O)Nc2nnc(C(F)(F)F)s2)cc1
 : 1e-09 | i | -7% | i | -0.4%
Cc1ccc(NC(=O)c2nnn(-c3cc(C)cc(C)c3)c2N)cc1
 : 1e-09 | i | 11% | i | -0.7%
CC1(C)CC(=O)c2c(nn(-c3ccccc3)c2N)C1
 : 2.9e-09 | i | 16% | i | 0.1%
Oc1ccc(CNc2ccccc2)c2cccnc12
 : 1.8e-09 | i | -4% | i | 0.0%
c1ccc2c(c1)N1CCN=C1N2CCN1CCCCC1
 : 1e-09 | i | ? | i | 0.1%
CCCCC(=O)Nc1ccc2c(c1)nc(CCN1CCOCC1)n2C
 : 1e-09 | i | 30% | i | 0.7%
CSCCOC(=O)C1=C(C)NC(=O)CC1c1ccccc1Cl (stereo not drawn)
 : 4.2e-08 | i | 8% | i | -1.0%
CN(c1ccc(C(=O)Nc2ccccc2C(F)(F)F)cc1)S(C)(=O)=O
 : 1.5e-08 | i | -6% | i | 0.4%
CCN(Cc1ccccc1)S(=O)(=O)c1ccc(C(=O)Nc2nnc(-c3ccccc3OC)o2)cc1
 : 4.7e-09 | i | 1% | i | 0.1%
COc1ccc(CCNC(=O)c2ccc(NS(=O)(=O)c3c(C)noc3C)cc2)cc1OC
 : 1e-09 | i | -3% | i | -0.7%
COCc1cc(C)n(CC(=O)NC(C)c2ccccc2)c(=O)c1C#N (stereo not drawn)
 : 2.9e-08 | i | / | i | 0.4%
CCOC(=O)c1nnn(-c2nonc2N)c1CN(C)C1CCCCC1
 : 2.9e-08 | i | ? | i | 0.4%
CCOC(=O)C(C(=O)Nc1ccccn1)C1CCCCC1 (stereo not drawn)
 : / | / | 14% | / | 0.7%
CCCn1nc(C(=O)Nc2cccc(C(=O)OC)c2)c2ccccc2c1=O
 : 1.1e-09 | i | ? | i | -1.2%
CCC(CC)C(=O)Nc1cc(C)cc(C)c1
 : 1e-09 | i | 17% | i | -1.5%
CC(=O)NC(Cc1ccccc1F)C(=O)NC1CCN(C(=O)c2cnccn2)CC1 (stereo not drawn)
 : 1.4e-08 | i | -7% | i | -0.6%
O=C(O)CCCn1nc(C(F)(F)F)c2c1CCCCC2
 : 2.7e-08 | i | 4% | i | 0.9%
CCCC(=O)N1CCN(c2ccc(NC(=O)c3ccc(Br)o3)cc2)CC1
 : 1.7e-08 | i | -10% | i | 0.8%
CCn1c(SCC(=O)Nc2cc(C)on2)nc2sc(C)c(C)c2c1=O
 : 2.7e-08 | i | -2%[11.4 µM] | i | -0.8%
CC1(C)[C@@H](CC(=O)O)CCC[C@@H]1CC(=O)O
 : 9.1e-09 | i | -5%[11.4 µM] | i | 0.6%[11.5 µM]
CCOC(=O)Cc1csc(Nc2c(C)n(C)n(-c3ccccc3)c2=O)n1
 : 7.4e-09 | i | -4% | i | -1.7%
O=C1c2ccccc2C(=O)N1CCCC(=O)N1CCc2ccccc21
 : / | / | 1%[11.4 µM] | / | -2.9%
CCOC(=O)N1CCN(c2nc3c(c(=O)[nH]c(=O)n3C)n2Cc2ccccc2Cl)CC1
 : 2.3e-08 | i | 8% | i | -0.9%
Cc1cc(S(=O)(=O)NCCN2CCOCC2)c(C)s1
 : 2.6e-08 | i | 22% | i | 2.5%
Cc1cc(-c2ccc(N3C(=O)CCC3=O)c(C)c2)ccc1N1C(=O)CCC1=O
 : / | / | 1% | / | 2.2%
CCOC(=O)C1CCN(C(=O)Cn2cc3c(n2)CCC(C)C3)CC1 (stereo not drawn)
 : / | / | 5% | / | 3.1%
Cn1c(N)c(C(=O)CSc2ccc3c(c2)OCCO3)c(=O)n(C)c1=O
 : 1.7e-09 | i | 4% | i | -0.3%
O/N=C(/CN(O)/C=C1/C=CC=N1)c1cccs1
 : 5.5e-09 | i | 2% | i | -1.2%
COc1ccccc1NC(=O)CN1CCN(CC(=O)Nc2ccc(OCc3ccccc3)cc2)CC1
 : 2.6e-09 | i | 18% | i | 0.0%
COCC(C)N=CC1=C(O)CC(C)(C)CC1=O (stereo not drawn)
 : / | / | 2% | / | 0.8%
O=c1cc(CN2CCN(Cc3ccccc3)CC2)c2cc(Cl)ccc2o1
 : 1e-09 | i | ? | i | 0.9%
CN1CCc2c(C#N)c(N3CCCCC3)nc(NCc3ccccc3)c2C1
 : 1e-09 | i | / | i | /
COc1ccc(N2C(=O)CC(N3CCN(S(=O)(=O)c4c(F)cccc4F)CC3)C2=O)cc1OC (stereo not drawn)
 : 2.5e-09 | i | -2% | i | -1.3%
CCOc1cc(C)c(S(=O)(=O)Nc2ccc(Cl)cn2)cc1C
 : 1e-09 | i | 9% | i | -1.0%
O/N=C1/CC/C(=N\O)c2nn(-c3ccccc3)nc21
 : / | / | -3% | / | 1.2%
CCc1c2c(nc3cccc(OC)c13)OC(CC)C2 (stereo not drawn)
 : / | / | ? | / | 2.7%
O=S(=O)(c1ccccc1)N1CCC2(CC1)CN(c1ccccc1)C2
 : 9.4e-09 | i | 4% | i | 1.2%
CCCCn1cnc2c1c(=O)n(C)c(=O)n2C
 : 4.7e-09 | i | -9% | i | -0.9%
COCCNC(=O)CN(C(=O)CCC(=O)Nc1ccccn1)c1ccc(F)cc1
 : 1.4e-08 | i | -11% | i | -1.0%
O=C1CC(N2CCN(c3nc4ccccc4s3)CC2)C(=O)N1c1ccc(F)cc1 (stereo not drawn)
 : / | / | ? | / | 0.8%
COc1ccc(NCC(=O)Nc2ccc(Cl)cc2C)c(OC)c1
 : 1e-09 | i | / | i | -1.6%
O=C(CSC1=Nc2ccccc2C2=NC(CC(=O)NCc3ccco3)C(=O)N12)NCC1CCCO1 (stereo not drawn)
 : 2.1e-08 | i | 19% | i | 2.3%
Cc1ccc(S(=O)(=O)CC2CSc3nnc(C)c(=O)n32)cc1 (stereo not drawn)
 : 1.2e-08 | i | -3% | i | -0.2%
O=C(CN1C(=O)CCSc2ccccc21)Nc1ccc2c(c1)OCO2
 : / | / | 12% | / | 1.1%
O=C(NC1CCN(Cc2ccccc2)CC1)C1COc2ccccc2O1 (stereo not drawn)
 : 1e-09 | i | 6% | i | 0.6%
Cc1nccn1-c1ccc(C(F)(F)F)cc1NC=O
 : 2.5e-09 | i | 1% | i | 0.2%
Cc1cc(Cl)ccc1OCc1nc(-c2ccc(O)cc2)n[nH]1
 : 2e-08 | i | 8% | i | 0.9%
COc1ccc(CNc2nc(-c3ccoc3)nc3ccccc23)c(OC)c1
 : 1e-09 | i | ? | i | 3.8%
COc1cccc(C(=O)NCc2cccnc2)c1
 : / | / | -2% | / | 3.7%
COc1ccc(C)cc1NC(=O)CSc1nnc(-c2ccc(OC)c(OC)c2)n1N
 : 4.8e-09 | i | / | i | 1.4%
CCc1nnc(SCc2ccc(OC)c(Br)c2)n1N
 : / | / | 7%[11.4 µM] | / | 0.6%
CCCCn1nnnc1NCc1ccc(N2CCCC2)cc1
 : 1e-09 | i | -8% | i | -0.8%
CC(C)c1ccc(NC(=O)NC2CCCCC2)cc1
 : 4.4e-08 | i | 7% | i | -0.4%
Cc1ccc(C(=O)NCC(=O)OCC(=O)c2c(N)n(C)c(=O)n(C)c2=O)s1
 : 1e-09 | i | 1% | i | 3.6%
CCOC(=O)Cc1c[nH]c2ccccc12
 : 1.7e-08 | i | 5% | i | -1.3%

# Some of the entries so far, bar-delimited:
Molecule | A647 fluor | A488 fluor | TSHR agonist | Resorufin autofl | AID923
CCc1nnc(SCc2ccc(OC)c(Br)c2)n1N | / | / | 7%[11.4 µM] | / | 0.6%
CCCCn1nnnc1NCc1ccc(N2CCCC2)cc1 | 1e-09 | i | -8% | i | -0.8%
CC(C)c1ccc(NC(=O)NC2CCCCC2)cc1 | 4.4e-08 | i | 7% | i | -0.4%

# More structures follow.
# Each structure is followed by: A647 fluor | A488 fluor | TSHR agonist | Resorufin autofl | AID923
CCCS(=O)(=O)N1CCCC(C(=O)NCCCOCC)C1 (stereo not drawn)
 : 1e-09 | i | 9% | i | 0.7%
CSc1ncccc1C(=O)OCc1ccccc1
 : 1e-09 | i | ? | i | -1.0%
O=C(O)c1ccc(CSCc2c(F)cccc2Cl)o1
 : 1e-09 | i | 9% | i | -1.8%
CCOC(=O)CCc1c(C)nc2cc(C3CCCN(C(=O)OC(C)(C)C)C3)[nH]n2c1=O (stereo not drawn)
 : 5.7e-09 | i | 24% | i | 1.1%
CC(C)[C@H](Nc1ncnc2nc[nH]c12)C(=O)O
 : 1e-09 | i | 1%[11.4 µM] | i | 2.2%[11.5 µM]
COc1ccc(C(=O)N2CCC3(CCCN(c4ccncc4)C3)CC2)cc1
 : 4.5e-09 | i | ? | i | 1.9%
CCN(C(=O)c1sc(N)c(C#N)c1C)C1CCCCC1
 : / | / | 3% | / | 0.2%
CCC(=O)Nc1cc(-c2nn3c(C)nnc3s2)ccc1C
 : 5.6e-09 | i | -3% | i | -0.5%
CCn1nnc(-c2ccccc2NC(=O)c2ccc(-n3cnnn3)cc2)n1
 : 4e-08 | i | ? | i | -1.2%
CCCOC(=O)C1=C(C)NC2=C(C(=O)CCC2)C1c1ccc(N(C)C)cc1 (stereo not drawn)
 : 3.6e-09 | i | -4% | i | 4.5%
NC(=O)CSCc1cccc(Br)c1
 : / | / | -4%[11.4 µM] | / | -1.8%
CCOc1ccc(N2C(=O)CC(Sc3nc(C)cc(C)n3)C2=O)cc1 (stereo not drawn)
 : / | / | 6%[11.4 µM] | / | -1.6%
COc1ccc(CC(=O)N2CCN(C(=O)Cc3ccc(OC)cc3)CC2)cc1
 : 3.2e-08 | i | 2% | i | 0.1%
Cc1cc(O)c(C(C)C)cc1CN1CCCCC1
 : 1.7e-08 | i | 2%[11.4 µM] | i | 1.2%[11.5 µM]
O=C1C(C2=C(O)c3ccccc3C2=O)=Nc2ccccc21
 : 1.2e-08 | i | -55%[inhibitor] | i | 0.9%
COc1ccc(C2CC(=O)N3CN(c4ccc(C)c(Cl)c4)CSC3=C2C#N)cc1OC (stereo not drawn)
 : / | / | 3% | / | 18%
CN1C(=O)C(Cc2c[nH]c3ccccc23)NC1=S (stereo not drawn)
 : / | / | -7% | / | 1.3%
CCCC(=O)Nc1c2c(nn1-c1ccc(OC)cc1)CS(=O)C2 (stereo not drawn)
 : 8.3e-09 | i | 3% | i | 0.7%
O=C(O)CSc1n[nH]c(=O)[nH]c1=O
 : 1e-09 | i | 1%[11.4 µM] | i | 3.2%[11.5 µM]
Cc1ccc(S(=O)(=O)N=C2SCCCS2)cc1
 : / | / | 3% | / | 4.2%
COc1ccc(C2C(C#N)=C(/N=C/N3CCN(C)CC3)OC3=C2C(=O)CC(C)(C)C3)cc1OC (stereo not drawn)
 : 1e-09 | i | 2% | i | 1.2%
CC1CCN(C(=O)CSc2nc3c(cnn3-c3ccc(Cl)cc3)c(=O)[nH]2)CC1
 : / | / | 0%[11.4 µM] | / | -1.4%
CC(C)CNC(=O)c1c(N)n(/N=C/c2cccnc2)c2nc3ccccc3nc12
 : 3.5e-08 | i | / | i | /
COc1ccc(OC)c([C@H]2Nc3ccccc3NC3=C2C(=O)CC(C)(C)C3)c1Br
 : 1e-09 | i | -5% | i | /
CC1CCCC(NC(=O)c2ccc3c(c2)N(Cc2ccccc2)C(=O)CS3=O)C1C (stereo not drawn)
 : / | / | ? | / | -4.1%
